# Source: PubChem (several laboratories)
# HSV augment – increases HSV replication in cells | HSV replication augmentation in cells, fold increase | maximum fold increase | hit rate 0.005% among 220,000 | AID 1956;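 active = peak rise of 1.5-fold or more in the series; inconclusive = self-fluorescent or not available for retest; tested in PC3 cells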;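 note: first round at 10 µM; read as green reporter fluorescence; hits show the peak of a series up to 25 µM; 1 = signal of infected wells without compound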
# RGS16-Gao HTS – regulators of human RGS16-Galphao interaction. O15492+P09471. bead-based flow cytometry RGS16-Galphao binding, fluorescence; actives lie on both sides. binding response (% of control), % at 10 µM. hit rate 0.38% among 220,000. AID 1441;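 active = below 25% or above 175%, edge rows of some plates excepted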;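 note: Galphao activated by GDP with aluminum fluoride before binding; 100% = wells without compound and 0% = beads without RGS; some results beyond the cut were filed as inactive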
# INS promoter inh – TRM-6 insulin promoter activity inhibition; TRM-6 cells (human fetal islet line), insulin promoter-eGFP reporter, imaging; reporter expression induced with tamoxifen; inhibition, % at 2 µM; hit rate 0.9% among 130,000;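 active = inhibition above the mean plus 3 SD, with well images judged a real hit on visual review, cut at about 60% in these data, passing the limit was not always enough; inconclusive = inhibition over the cutoff but images rejected on review; inactive = inhibition not above the cutoff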
# GALR2 agonist – activates the human galanin receptor 2; O43603; GALR2-expressing cells, agonist activation read-out; activation, %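 (tested at 5 µM)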; hit rate 0.48% among 140,000;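 active = above mean plus 3 SD of all compounds, about 5% in these data, not always enough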;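 note: 0% = vehicle buffer wells and 100% = reference agonist at full effect; tested in CHO reporter cells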
# PKD1 kinase inh – blocks activity of human protein kinase D1 | Q15139 | inhibition, %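 (about 10 µM by stock and volumes)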 | PKD1 kinase fluorescence polarization assay | hit rate 0.056% among 200,000 | AID 797;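 active = inhibition of 50% or more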;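 note: controls were vehicle for no effect and a reference inhibitor for full effect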
# Target sequence (Q15139 whole entry, looked up): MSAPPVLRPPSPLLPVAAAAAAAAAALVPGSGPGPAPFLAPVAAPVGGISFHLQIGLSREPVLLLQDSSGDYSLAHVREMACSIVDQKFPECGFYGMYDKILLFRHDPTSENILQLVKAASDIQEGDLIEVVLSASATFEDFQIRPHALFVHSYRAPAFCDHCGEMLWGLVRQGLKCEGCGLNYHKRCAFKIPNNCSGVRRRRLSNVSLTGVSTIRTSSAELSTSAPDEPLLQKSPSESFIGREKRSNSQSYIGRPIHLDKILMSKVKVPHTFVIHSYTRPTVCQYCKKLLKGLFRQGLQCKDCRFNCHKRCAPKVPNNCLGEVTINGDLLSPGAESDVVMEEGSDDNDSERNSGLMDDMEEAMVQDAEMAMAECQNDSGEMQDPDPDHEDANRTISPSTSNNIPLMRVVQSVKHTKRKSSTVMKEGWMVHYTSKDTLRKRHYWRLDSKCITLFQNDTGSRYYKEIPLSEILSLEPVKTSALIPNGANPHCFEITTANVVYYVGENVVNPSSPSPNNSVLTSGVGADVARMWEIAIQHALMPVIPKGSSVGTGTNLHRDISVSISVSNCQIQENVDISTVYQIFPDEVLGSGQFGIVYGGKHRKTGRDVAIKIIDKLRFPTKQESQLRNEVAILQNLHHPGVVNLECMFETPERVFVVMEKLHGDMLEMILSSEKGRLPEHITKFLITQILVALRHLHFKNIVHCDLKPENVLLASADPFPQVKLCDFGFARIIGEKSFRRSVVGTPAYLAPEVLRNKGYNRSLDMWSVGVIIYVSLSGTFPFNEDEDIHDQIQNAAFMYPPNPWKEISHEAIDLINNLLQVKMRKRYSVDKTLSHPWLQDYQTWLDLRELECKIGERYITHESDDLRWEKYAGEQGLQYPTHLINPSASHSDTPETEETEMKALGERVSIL
# INS promoter inh cell count – recorded beside INS promoter inh, whose call it bears; normalized cell count, %; measured here: cell count, toxicity; reference of the scale not given here;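 cells exposed to compound for 48 h; stained nuclei by imaging scaled within each plate; lower means fewer cells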
# HSV augment primary fold – recorded beside HSV augment, whose call it bears; fold increase; compound at 10 µM; measured here: primary screen fold increase 10 uM; tested in PC3 cells;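 GFP signal in the first replicate; 1 = infected wells without compound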
# An asterisk follows results filed as active; i = inactive; ? = inconclusive; / = no result given.
# Values run as follows: HSV augment | HSV augment primary fold | RGS16-Gao HTS | INS promoter inh | INS promoter inh cell count | GALR2 agonist | PKD1 kinase inh
CC(=O)Oc1cc2c(cc1Cl)C(c1cccs1)CC1(CC(C)(C)NC(=S)N1)O2 (centres undefined)
 : i | 1 | 94 | / | / | / | -4
CCCC(C(=O)NC1CCCCC1)N(Cc1ccco1)C(=O)CNS(=O)(=O)c1ccccc1 (centres undefined)
 : i | 0.96 | 100 | -77 | 102 | -0.1 | -1
Cc1cccc(NC(=O)C(Cc2ccccc2)n2cccc2)c1 (centres undefined)
 : i | 0.95 | 103 | / | / | / | /
O=C(c1ccc(F)cc1)N1CCN(c2cnn(-c3ccccc3)c(=O)c2Cl)CC1
 : i | 0.95 | 102 | / | / | / | -1
CCOC(=O)c1sc(NC(=S)n2cc(C)cn2)c(C(=O)OCC)c1C
 : / | / | / | -50 | 144 | -1.1 | 1
O=C1CCC(C(=O)Nc2cccc(C(F)(F)F)c2)N1 (centres undefined)
 : i | 0.79 | / | / | / | 0.1 | -4
CO[C@@H]1O[C@@H]2COC(c3ccccc3)O[C@@H]2[C@@H](OC)[C@@H]1O (some centres undefined)
 : i | 0.91 | 128 | 0 | 86 | -4.0 | 1
CC(C)(C)n1nc2c(c1NC(=O)c1ccccc1)CS(=O)(=O)C2
 : i | 0.86 | 105 | 21 | 97 | / | 2
CC(=O)Nc1ccc2c(c1)nc(CCN1CCN(C)CC1)n2C
 : i | 0.8 | 96 | / | / | -1.6 | -2
COc1ccc(/C=C/C(=O)N(C)C2CCS(=O)(=O)C2)cc1OC (centres undefined)
 : i | 0.94 | 99 | 0 | 189 | -2.4 | -19
COc1ccc(S(=O)(=O)N(CCc2ccccc2)CC(=O)O)cc1Cl
 : i | 0.87 | 100 | 64 | 99 | -2.7 | 3
COC(=O)c1ccc(NCN2C(=O)C3C4CCC(C4)C3C2=O)cc1 (centres undefined)
 : i | 0.97 | 78 | / | / | / | -10
Cc1cc(Nc2cccc(O)c2)c2ccccc2n1
 : i | 0.77 | 104 | / | / | / | -8
CC(=O)C1C(=O)c2c(cccc2[N+](=O)[O-])C1=Nc1cccc(Cl)c1 (centres undefined)
 : i | 0.93 | 108 | / | / | / | /
CCOc1ccc(-c2nn[nH]n2)cc1OCC
 : i | 0.91 | 93 | -370 | 54 | -1.9 | -3
CCOC(=O)C(=O)N/N=C/c1ccco1
 : i | 0.97 | 92 | / | / | / | /
COc1cc2c(cc1NC(=O)COC(=O)C1CC(=O)N(Cc3ccco3)C1)oc1ccccc12 (centres undefined)
 : i | 0.99 | 71 | 14 | 155 | -0.7 | 4
Cc1ccc2cc(CN(C(=O)c3ccco3)c3ccccc3C)c(=O)[nH]c2c1
 : i | 1 | 98 | / | / | -1.6 | 2
CC(C)(C)OC(=O)NCc1n[nH]c(=S)n1C1CC1
 : i | 1 | 99 | / | / | / | /
Cc1ccc(NC(=O)CSc2nnc(-c3ccncc3)n2C)cc1S(=O)(=O)N1CCOCC1
 : i | 1 | 100 | 8 | 90 | / | 0
CC1CCN(c2ncccc2C(=O)O)CC1
 : i | 1 | 100 | 50 | 86 | 0.1 | -4
CCOC(=O)CNC(=O)CNC(=O)c1ccc(OC(C)C)cc1
 : i | 1.1 | 113 | / | / | / | /
Cn1ccs/c1=N\S(=O)(=O)c1ccc(Br)cc1
 : i | 0.86 | 123 | 23 | 72 | -1.9 | -3
CCOC(=O)Cn1c(=S)[nH]c2c(oc3ccc(Cl)cc32)c1=O
 : i | 1.1 | 103 | 33 | 142 | -1.6 | -2
Cc1cc(C)c(N(CC(=O)NC(C)(C)C)C(=O)CNC(=O)c2cccs2)c(C)c1
 : i | 0.96 | 102 | / | / | / | -1
C=CCNC(=S)NNC(=O)C(CCC(C)C)CC(C)O (centres undefined)
 : i | 0.96 | 104 | -34 | 72 | 1.1 | -2
CC(C)NS(=O)(=O)c1ccc(OCC(=O)Nc2ccccc2F)cc1
 : i | 0.83 | 98 | 44 | 111 | -0.9 | -6
Cc1cccc(NC(=S)N(Cc2ccc(Cl)cc2)Cc2ccc(C(=O)O)cc2)c1
 : i | 1.1 | 89 | / | / | / | -2
Cc1ccccc1Nc1nc(N)nc(COC(=O)c2ccc(O)cc2)n1
 : i | 1 | 104 | -20 | 87 | -1.7 | 2
COc1ccc2nc(NC(=O)c3ccc(-c4cccc([N+](=O)[O-])c4)o3)sc2c1
 : i | 1.1 | 80 | / | / | -3.5 | 2
CCCCCCN1C=CC(=C/C=C(\C#N)C(=O)OCC)C=C1
 : ? | / | 98 | -133 | 89 | -1.9 | -19
NC(=O)Cn1c2[n+](c3ccccc31)CC(O)CS2 (centres undefined)
 : i | 0.85 | 98 | 19 | 126 | -2.9 | 1
Cc1ccc(C(C#N)c2ccc(Cl)nn2)cc1 (centres undefined)
 : i | 0.95 | 100 | / | / | / | -2
Cc1ccc(N2CC(C(=O)OCC(=O)C(C)(C)C)CC2=O)cc1C (centres undefined)
 : i | 0.84 | 104 | / | / | 0.3 | 17
CCOc1ccccc1NC(=O)C(NCC1(N2CCCCC2)CCCCC1)c1ccccc1 (centres undefined)
 : / | / | 132 | -129 | 41 | / | -3
CCCC(C)NC(=O)/C=C/c1cccc([N+](=O)[O-])c1 (centres undefined)
 : i | 1 | 100 | 19 | 86 | -2.2 | -6
CCC(Sc1nc2cc(OC)c(OC)cc2c(=O)n1CCc1ccc(S(N)(=O)=O)cc1)C(=O)NCCOC (centres undefined)
 : i | 0.87 | 111 | -42 | 56 | / | 2
O=C(CN1CCOCC1)Nc1ccccc1NC(=O)C1CCN(c2ncccn2)CC1
 : i | 1 | 108 | 0 | 65 | -1.5 | 7
O=C(CCn1c2c(c3ccccc31)CCCC2)NNC(=O)c1ccccc1Cl
 : i | 1 | 62 | / | / | -0.2 | -1
Cc1noc(NS(=O)(=O)c2ccc(N/C=C\C(=O)c3cccc4ccccc34)cc2)c1C
 : i | 1.1 | 99 | / | / | / | 6
COC(=O)[C@H](C)NC(=O)Nc1ccccc1C(F)(F)F
 : i | 0.88 | 102 | / | / | -0.4 | 0
Cc1cccc(C)c1NC(=O)Nc1ccc2c(c1)OCO2
 : i | 1.1 | 96 | 27 | 75 | / | -3
CC(C)(C)S(=O)(=O)c1ccc(S(=O)(=O)C(C)(C)C)s1
 : i | 0.97 | 99 | 44 | 87 | -0.5 | -13
O=C(Nc1nccs1)c1cc(-c2ccncc2)nc2ccccc12
 : i | 0.96 | 97 | -17 | 85 | / | -7
Cc1cccc(-n2cnc3sc(C)c(C)c3c2=O)c1
 : i | 0.92 | 104 | / | / | / | /
CCc1cccc(NC(=O)NC(=O)Cn2nnc(C(=O)OC)c2C(=O)OC)c1
 : i | 1 | 100 | 17 | 128 | -0.4 | -5
CCN=C(NCC)SC1CC(=O)N(c2cccc(OCC)c2)C1=O (centres undefined)
 : i | 0.9 | 110 | 57 | 142 | -2.9 | -7
COc1ccc(NC(=O)C2CC(=O)N(Cc3ccc(C)cc3)C2)cc1S(=O)(=O)N1CCCCC1 (centres undefined)
 : i | 0.86 | 53 | 46 | 77 | 0.1 | -1
CCCCSc1n[nH]c(N)n1
 : i | 0.93 | 100 | -7 | 139 | -0.3 | -1
CC1=NN(C(=O)Cc2ccccc2)C(O)(c2ccccc2)C1 (centres undefined)
 : i | 0.89 | 99 | 33 | 92 | / | 1

# The list continues:
# Values run as follows: HSV augment | HSV augment primary fold | RGS16-Gao HTS | INS promoter inh | INS promoter inh cell count | GALR2 agonist | PKD1 kinase inh
COc1ccc(N(CC(=O)Nc2ccc(F)c(Cl)c2)S(=O)(=O)c2c(C)noc2C)cc1
 : i | 1 | 102 | -26 | 81 | -0.8 | -2
Cc1noc(C)c1S(=O)(=O)N(CC(=O)NCc1ccc2c(c1)OCO2)c1ccc(C(C)C)cc1
 : i | 0.95 | 103 | / | / | -1.0 | -4
COc1ccccc1NC(=O)N1CCCC1C(=O)Nc1ccc(NC(C)=O)cc1 (centres undefined)
 : i | 0.91 | 95 | 19 | 155 | -1.1 | 0
CCOC(=O)c1c(C)c(C(=O)NCCCOC)c(C)n1C
 : / | / | 99 | / | / | -1.2 | -5
O=C(NNc1ccccc1Cl)C(O)(c1cccc(C(F)(F)F)c1)c1cccc(C(F)(F)F)c1
 : i | 0.72 | 102 | -43 | 69 | -1.9 | -7
Cc1ccc(NCc2nnc3n2CCCCC3)cc1
 : i | 1 | 116 | / | / | -1.7 | -8
Cc1ccccc1OCC(=O)NNC(=O)CN1C(=O)c2ccccc2C1=O
 : i | 1.1 | 106 | 26 | 130 | -1.1 | -5
Clc1cccc(N2CCN(CCNc3nc4ccccc4n4cnnc34)CC2)c1
 : i | 0.78 | 97 | -127 | 119 | -1.4 | 0
COC(CNC(=O)C1CCCCC1C(=O)O)OC (centres undefined)
 : i | 0.94 | 110 | 38 | 75 | -0.9 | -15
Cc1oc(-c2ccccc2)cc1C(=O)Nc1cccc2ccccc12
 : i | 0.89 | 104 | 16 | 87 | -1.0 | -1
Cc1cc(C(=O)COc2cccnc2[N+](=O)[O-])c(C)n1Cc1ccco1
 : / | / | 94 | -3 | 129 | / | 1
O=C(COc1ccc(S(=O)(=O)NCc2ccccc2)cc1)NCC1CCCO1 (centres undefined)
 : i | 0.98 | 126 | -55 | 128 | -1.6 | -4
CCOC(=O)C1CCN(C(=O)CNS(=O)(=O)c2cccs2)CC1
 : i | 1 | 101 | 53 | 106 | -0.3 | -12
O=C(COC(=O)c1cnccn1)c1ccc2c(c1)CCCC2
 : i | 0.72 | 100 | / | / | -3.9 | -4
O=C(CCCN1C(=O)c2ccccc2C1=O)Nc1cccnc1
 : i | 0.99 | 98 | 10 | 98 | -1.2 | 1
CCC(C)NC(=O)c1ccccc1SC (centres undefined)
 : i | 0.81 | 99 | / | / | / | 5
COc1cc(C(=O)Nc2ccc(C(=O)O)cc2)ccc1OC(C)=O
 : i | 1 | 101 | / | / | / | -6
CCCOc1cccc(C(=O)NC(=S)Nc2cccc(NC(=O)c3ccccc3Cl)c2)c1
 : i | 0.87 | 93 | 26 | 110 | -2.7 | 4
CC(OC(=O)Cc1coc2cc3c(cc12)CCC3)C(=O)NCc1ccc2c(c1)OCO2 (centres undefined)
 : i | 0.84 | 101 | 29 | 79 | -2.0 | -5
CCOC(=O)c1ccc(NC(=O)c2nc[nH]c2C(=O)N[C@H](C)c2ccccc2)cc1
 : i | 0.85 | 99 | / | / | / | /
CC(=O)NC(NC(C)=O)c1ccc(Br)cc1
 : i | 0.98 | 98 | 0 | 52 | -0.7 | 1
O=[N+]([O-])c1cc(S(=O)(=O)C(F)(F)F)ccc1Sc1nc2ccccc2[nH]1
 : i | 0.62 | 104 | 0 | 123 | -0.8 | -6
CCn1c(SCC(=O)Nc2cccc(OC)c2)nnc1-c1ccc(Cl)cc1
 : i | 0.83 | 105 | 24 | 93 | -2.5 | -1
Cc1ccc(NC(=O)CN(C)C(=O)CCC(=O)c2cccs2)cc1
 : i | 1.2 | 105 | / | / | -1.3 | -5
CC1=CC(C2CC(=O)N(c3ccc(C)cc3)C2=O)CC2C(=O)N(c3ccc(C)cc3)C(=O)C12 (centres undefined)
 : i | 0.98 | 108 | / | / | / | 2
O=C(NCCc1ccccc1)/C(=C/c1ccco1)c1ccccc1
 : i | 1 | 65 | -94 | 61 | -0.5 | -2
Cc1ccc(S(=O)(=O)N2CCCC(C(=O)NNCC(=O)Nc3cc(F)ccc3F)C2)cc1 (centres undefined)
 : i | 0.85 | 101 | / | / | / | 0
O=C(NCCc1ccccc1)C(=O)NCC1OCCN1S(=O)(=O)c1ccc([N+](=O)[O-])cc1 (centres undefined)
 : i | 1 | 98 | / | / | / | 3
CC(C)(C)C1CCc2c(sc(NC(=O)c3ccco3)c2C(N)=O)C1 (centres undefined)
 : i | 0.97 | 110 | -4 | 141 | 2.2 | 1
COc1ccc(CCN(Cc2cccs2)S(=O)(=O)c2ccc(S(=O)(=O)N3CCC(C)CC3)cc2)cc1OC
 : i | 0.94 | 115 | 7 | 99 | 0.0 | -4
COc1cc(OC)c2c(c1)C(=O)OC2
 : i | 0.93 | 98 | -7 | 112 | -0.8 | 7
COC(=O)c1ccc(Cl)c(NC(=O)c2cccc([N+](=O)[O-])c2C)c1
 : i | 0.89 | 97 | / | / | / | 0
CCOC(=O)c1sc(NC(=O)CCN2C(=O)c3cccc([N+](=O)[O-])c3C2=O)c(C(=O)OCC)c1C
 : i | 1.1 | 106 | 19 | 95 | -2.4 | -2
C/C=C/C=C\C(=O)Nc1cccc(C2=NOC3(C2)C[C@@H](C(N)=O)N(C(=O)/C(C)=C/C)C3)c1 (some centres undefined)
 : i | 0.71 | 95 | / | / | / | /
CCOC(=O)c1sc(NC(=O)CSc2ccccn2)c(C#N)c1C
 : i | 1.2 | 99 | -72 | 100 | -0.8 | -14
